Assay outcomes from PubChem BioAssay.
SARS PLP yeast: qHTS of Yeast-based Assay for SARS-CoV PLP | AID 485353, 2010 | S. cerevisiae expressing SARS-CoV PLpro, growth rescue; control for the full effect not named in the record | 330,000 tested, 0.19% active | Potency, µM (top dose mostly 32.9 µM), without a hit: at the highest dose activity, positive = growth rescue; active means well fitted rising curve with a large enough effect; inconclusive means small, poorly fitted or top-dose-only effect; inactive means no such curve, though single readings can be large or run the other way; note: 0% is about no effect; nearly all actives have a fitted effect of over 55% in size; growth read by luminescence after 48 h
2A StopGo: High Throughput Screening for Foot and Mouth Disease Virus Antivirals. human cells with a luciferase reporter of 2A StopGo recoding; control for the full effect not named in the record. Potency, µM (titrated, usually from 57.9 µM), inactives show at the highest dose signal change, negative = less light. 410,000 tested, 1.2% active; active = well fitted falling curve with a large enough effect; inconclusive = small, poorly fitted or top-dose-only effect; inactive = no such curve, though single readings can be large or run the other way; tested in HEK293T cells; note: % is set by controls: 0 for no effect and ±100 for the full control effect; nearly all actives have a fitted effect of over 45% in size; luciferase light after 4 h
Cruzain noTriton: qHTS Assay for Promiscuous and Specific Inhibitors of Cruzain (without detergent). Potency, µM, for inactives: max response, negative = inhibition, actives largely listed as inhibitors. purified cruzain, Z-FR-AMC fluorescence, no detergent. Cruzipain (Trypanosoma cruzi), P25779. 200,000 tested, 2.3% active;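 note: plate controls were enzyme without inhibitor for no effect and buffer without enzyme for full effect; nearly all actives have a fitted effect of over 40% in size; top concentration of the series not given in the record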
Target sequence (P25779 123-467 limits assumed): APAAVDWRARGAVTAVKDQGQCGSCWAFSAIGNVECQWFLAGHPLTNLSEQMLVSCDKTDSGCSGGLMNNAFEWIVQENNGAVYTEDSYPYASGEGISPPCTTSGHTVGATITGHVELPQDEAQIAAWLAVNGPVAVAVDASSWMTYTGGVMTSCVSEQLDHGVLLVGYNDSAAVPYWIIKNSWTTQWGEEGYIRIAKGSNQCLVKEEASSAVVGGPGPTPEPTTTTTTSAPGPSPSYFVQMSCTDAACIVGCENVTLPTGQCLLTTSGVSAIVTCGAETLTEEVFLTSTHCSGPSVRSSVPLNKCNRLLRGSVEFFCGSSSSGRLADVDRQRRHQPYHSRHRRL
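Purified cruzain at 1.5 nM, pre-incubated 15 min with compound at room temperature in 100 mM sodium acetate pH 5.5, 5 mM DTT, 0.00005% Triton X-100. Reaction started with 2 uM Z-FR-AMC; AMC fluorescence increase over 60 s gives rate.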
RE007 growth inh: qHTS Assay for Inhibitors of the HIV-1 protein Vpr | S. pombe RE007 Vpr strain, BacTiter-Glo ATP luminescence, 24 h; control for the full effect not named in the record | 360,000 tested, 0.21% active | Potency, µM (titrated, usually from 92.2 µM), inactives show top-dose activity change, negative = less growth; active = well fitted falling curve with a large enough effect; inconclusive = small, poorly fitted or top-dose-only effect; inactive = no such curve, though single readings can be large or run the other way;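 note: % is set by controls: 0 for no effect and ±100 for the full control effect; nearly all actives have a fitted effect of over 50% in size; the assay follows cell death caused by Vpr and the record does not say whether a fall means rescue or toxicity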
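Fission yeast strain RE007, carrying one chromosomally integrated HIV-1 vpr copy, was seeded at OD 0.01 in PMG+AL medium with 23 nL pinned compound. After 24 h at 30 °C and 99% humidity, viability was read by BacTiter-Glo luminescence.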
Marburg entry inh: qHTS for inhibitors of binding or entry into cells for Marburg Virus | Marburg virus pseudotyped entry inhibition, cell reporter; control for the full effect not named in the record; about a third of the inactives were read at about 46 µM | Potency, µM (series often up to 37.8 µM), inactives show top-dose activity change, negative = inhibition, actives largely listed as inhibitors | 300,000 tested, 1.8% active; active = well fitted inhibition curve with a large enough effect; inconclusive = small, poorly fitted or top-dose-only effect, or effect the other way; inactive = flat fitted curve, though single readings scatter; tested in HEK293 cells; about a fifth of its hits are not listed in these tables; note: % is set by controls: 0 for no effect and ±100 for the full control effect; luciferase read-out
NS1 inh: qHTS Assay for Inhibitors of Influenza NS1 Protein Function | AID 2326, 2010 | S. cerevisiae slowed by influenza A NS1, growth recovery by OD600 | 270,000 tested, 0.4% active | Potency, µM (highest dose often 46.1 µM), inactives show top-dose activity, positive = more growth; active means well fitted rising curve with a large enough effect; inconclusive means small, poorly fitted or top-dose-only effect; inactive means no such curve, though single readings can be large or run the other way; note: nearly all actives have a fitted effect of over 50% in size
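S. cerevisiae expressing influenza A NS1, grown in glucose, washed, then diluted 1:100 into pH 6.0 -URA galactose medium with 23 nl compound. Growth recovery read as OD600; NS1-free strain serves as control.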
LASV entry inh: qHTS for Inhibitors of binding or entry into cells for Lassa Virus; 300,000 tested, 1.2% active; Potency, µM (doses to about 37.9 µM), for the others: at the top dose activity change, negative = inhibition, actives largely listed as inhibitors; Lassa virus pseudotype entry inhibition, cell reporter; control for the full effect not named in the record; active means well fitted inhibition curve with a large enough effect; inconclusive means small, poorly fitted or top-dose-only effect, or effect the other way; inactive means flat fitted curve, though single readings scatter; tested in HEK293 cells; note: % is set by controls: 0 for no effect and ±100 for the full control effect; nearly all actives have a fitted effect of over 50% in size; luciferase read-out
Cruzain Triton: qHTS Assay for Promiscuous and Specific Inhibitors of Cruzain (with detergent). 200,000 tested, 0.43% active. Potency, µM, inactives show max response, negative = inhibition, actives largely listed as inhibitors. purified cruzain, Z-FR-AMC fluorescence, 0.01% Triton. Cruzipain (Trypanosoma cruzi), P25779;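 note: plate controls were neutral wells for no effect and buffer without enzyme for full effect; nearly all actives have a fitted effect of over 40% in size; top concentration of the series not given in the record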
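Purified cruzain (1.5 nM final) was preincubated with compounds for 15 min at room temperature in 100 mM sodium acetate pH 5.5, 5 mM DTT, 0.01% Triton X-100. Reaction started with 2 uM Z-FR-AMC; AMC fluorescence change over 60 s gave activity.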
* = called active by the depositor; ? = inconclusive; · = not tested or not shown; & = joins results of further samples; [ ] = remark or other dose. Unless noted, calls come from the whole dose curve; as a rule, active = well fitted curve in the direction sought with a large enough effect; inconclusive = small, poorly fitted or top-dose-only effect, or another doubt; inactive = no such curve, though single readings can be large; an effect the other way counts as inactive or inconclusive. Potency is the fitted concentration of half-maximal effect.

SMILES	2A StopGo	Marburg entry inh	LASV entry inh	Cruzain Triton	Cruzain noTriton	SARS PLP yeast	NS1 inh	RE007 growth inh
Cc1ccc(C)c(NC(=O)c2nc(S(=O)(=O)Cc3ccc(F)cc3)ncc2Cl)c1	28µM*	6%[46.1 µM]	?	-1.7%	5%	·	·	·
O=C(NCc1ccc2c(c1)OCO2)c1cccc(S(=O)(=O)N2CCCC2)c1	30%	2%	0%	·	·	-4%	-3%	10%
COc1ccc(C2CC(=O)C(C=NCCO)=C(O)C2)cc1 (stereo not drawn)	-1%	·	·	·	·	-2%	-2%	1%
CCOC(=O)C(C(=O)OCC)[C@@H]1CS(=O)(=O)C[C@H]1C(C(=O)OCC)C(=O)OCC	-17%	-7%[46.1 µM]	0%	2.2%	8%	7%	-1%	0%
COc1cc(C2C(C(=O)c3ccc(C)o3)=C(O)C(=O)N2c2cc(C)on2)ccc1O (stereo not drawn)	-5%	8%	0%	-4.4%	-6%	6%	-8%	2%
COc1cc(NC(=S)NCC2CCCO2)c(OC)cc1Cl (stereo not drawn)	15%	·	·	·	·	-1%	3%	12%
O=S(=O)(c1ccc2c(c1)OCCO2)N1CCc2ccccc21	23%	?	?	·	·	0%	·	5%
O=C(Cn1ccc2ccccc2c1=O)NCC1COc2ccccc2O1 (stereo not drawn)	-10%	-7%	4%	-0.9%	-11%	2%	-4%	16%
CCn1c(C(c2ccccc2)c2ccccc2)n[nH]c1=S	-10%	?	-10%	0.3%	-8%	2%	7%	9%
O=C1CC(c2ccccc2)C(C(=O)O)N1 (stereo not drawn)	-23%	1%	·	5.4%	-6%	-1%	-4%	1%
COc1cc(NC(=O)c2ccccc2[N+](=O)[O-])c(C(=O)O)cc1OC	-4%	-18%[46.1 µM]	11%[46.1 µM]	·	·	2%	8%	-23%
Cc1ccccc1Cn1nnc2c(=O)[nH]c(C3CCCN(C(=O)c4ccc(C(C)(C)C)cc4)C3)nc21 (stereo not drawn)	?	-2%[46.1 µM]	-15%[46.1 µM]	-11%	?	·	·	·
O=C(Nc1ccccc1Sc1ccccc1)c1ccc(F)cc1	-26%	15%	4%	-2.3%	10%	-29%	-20%	5%
CC(C)(C)c1nnc(N/N=C/c2ccccc2O)n(N)c1=O	1%	?	?	-8.4%	-7%	3.2µM*	-34%	-27%
Cn1cnc2nc(Cl)nc(Cl)c21	?	?	?	·	·	·	·	-16%
C=CCn1c(SCC(=O)N2CCOCC2)nnc1C(C)NC(=O)c1ccccc1 (stereo not drawn)	-10%	31%	-7%	·	·	?	-8%	1%
COc1ccc(-c2cc(C(=O)Nc3cc(S(N)(=O)=O)ccc3C)c3ccccc3n2)cc1OC	6%	?	?	·	·	·	·	5%
O=S(=O)(NCC(c1ccco1)N1CCN(c2ccccc2F)CC1)c1ccc(F)cc1 (stereo not drawn)	-7%	?	?	-7.1%	-8%	-3%	-20%	0%
O=C(Nc1nccs1)C1CC(=O)N(Cc2ccco2)C1 (stereo not drawn)	-8%	8%[46.1 µM]	4%	·	·	3%	·	5%
CC(=O)Nc1c(C)nn(-c2ccccc2)c1N1CCC(C(=O)NCc2cccc(Cl)c2)CC1	-8%	·	-26%[46.1 µM]	-14%	?	·	·	·
O=C(CSc1nnc(C2COc3ccccc3O2)o1)N1CCCCC1 (stereo not drawn)	?	·	·	2.1%	10%	-2%	-4%	11%
COc1ccccc1CCNC(=O)C(=O)c1cn(CC(=O)N2CCCC2)c2ccccc12	13%	-1%	4%	·	·	-5%	2%	20%
c1ccc(-c2cc(N3CCOCC3)nc(-c3ccccc3)n2)cc1	·	9%	4%	-1.7%	1%	?	-8%	-2%
COc1ccc(-n2nc(C(=O)N3CCCC(C)C3)c3c4ccccc4n(C)c3c2=O)cc1Cl (stereo not drawn)	-19%	8%[46.1 µM]	8%[46.1 µM]	-1.7%	-7%	·	·	·
COc1cc([N+](=O)[O-])ccc1NC(=O)COC(=O)c1ccc(NC(N)=O)cc1	-11%	-3%[46.1 µM]	-31%[46.1 µM]	·	·	0%	4%	4%
CCOc1ccc(CN2CCN(Cc3cccn3-c3nccs3)CC2CCO)cc1 (stereo not drawn)	-7%	?	-12%	·	·	0%	2%	-3%
CCC(C)[C@@H](N)C(=O)N/N=C/c1ccc2ncccc2c1 (stereo partly drawn)	0%	21%	21%	10µM*	10µM*	1%	5%	·
NS(=O)(=O)c1ccccc1NC(=O)c1c(O)c2ccccc2[nH]c1=O	23%	?	?	·	·	-2%	3%	21%
Cc1ccc(-c2noc(C(C)NC(=O)c3ccco3)n2)cc1 (stereo not drawn)	-20%	-26%[46.1 µM]	18%[46.1 µM]	-1.2%	1%	·	·	·
Cc1cccc2cc(C(c3nnnn3C3CCCC3)N3CCOCC3)c(=O)[nH]c12 (stereo not drawn)	-15%	4%	6%	-3.3%	-8%	7%	-7%	3%
CCOC(=O)c1[nH]c2ccccc2c1NC(=O)c1cc(OCC)c(OCC)c(OCC)c1	0%	-2%[46.1 µM]	-26%[46.1 µM]	1.7%	6%	·	·	·
Cc1c(C)c2cc(Cl)c(OCc3nn[nH]n3)cc2oc1=O	-6%	-2%	17%	-4.7%	-13%	6%	?	9%
Cc1ccc(-n2nc3c(c2NC(=O)c2ccc4c(c2)OCO4)CS(=O)C3)cc1 (stereo not drawn)	-5%	-3%	9%	-2.7%	-5%	-9%	-4%	11%
COc1ccc(NC(=O)c2cccc(NC(=O)c3ccccc3)c2)cc1	36%[activator]	·	·	·	·	1%	-11%	3%
CCc1sc(C(=O)NC2CCN(C)CC2)cc1Br	-3%	?	-21%	1.0%	-9%	10%	0%	-19%
COc1ccccc1N1CCN(C(=O)c2ccc3c(c2)CCN3S(C)(=O)=O)CC1	-1%	·	·	·	·	0%	3%	2%
Cc1ccc(CS(=O)Cc2ccc(C(=O)NCc3ccc4c(c3)OCO4)o2)cc1 (stereo not drawn)	-14%	-30%[46.1 µM]	-27%[46.1 µM]	·	·	-5%	5%	6%
COc1ccc(C2(N3CCN(c4cc(C)ccc4C)CC3)C(=O)c3ccccc3C2=O)cc1	-27%	-19%[46.1 µM]	-8%[46.1 µM]	-1.0%	-30%	·	·	·
Nc1nonc1-n1nnc(C(=O)N/N=C/C=C/c2ccccc2)c1CSC1=NCCS1	0%	?	?	·	·	1%	9%	-3%
CCOc1ccc(C(=O)CCC(=O)O)cc1	4%	-7%	8%	1.6%	-2%	1%	-1%	1%
CCCOc1cccc(-c2cc(C(=O)NNC(=S)NCC)c3ccccc3n2)c1	0%	0%	-7%	-12%	-10%	7%	-35%	-9%
C[C@]12c3[nH]c4cc(-c5ccco5)ccc4c3CCN1C(=O)[C@@H](CC(=O)NCCc1ccccn1)C[C@@H]2C(=O)N1CCOCC1	-5%	-3%	·	·	·	-14%	·	3%
FC(F)(F)c1cccc(Sc2cc(C(F)(F)F)nc(-c3ccccn3)n2)c1	?	?	-8%	-5.5%	?	-5%	24%	1%
Cc1cccc(-n2c(SCC(=O)Nc3nonc3C)nnc2-c2ccoc2C)c1	-1%	-13%[46.1 µM]	2%	-3.6%	0%	4%	-4%	30%
O=C1c2ccccc2-c2c1cccc2C(=O)N1CCCCCC1	7%	-3%	3%	-3.3%	4%	1%	-33%	11%
CCOc1ccc(S(=O)(=O)N2CCC(C(=O)NCc3ccncc3)CC2)cc1C	3%	-20%[46.1 µM]	·	·	·	-4%	-13%	9%
CCOC(=O)c1sc2ccccc2c1S(=O)(=O)Nc1cccc(C(F)(F)F)c1	62%[activator]	·	29%[46.1 µM]	-9.7%	6%	·	·	·
Cc1cccc(C(=O)OCc2cc(=O)n3nc(-c4cccs4)sc3n2)c1	8%	·	5%[46.1 µM]	-4.1%	-9%	·	·	·
CC(C)CN=C(NS(=O)(=O)c1ccccc1)C(Cl)(Cl)Cl	?	?	?	-1.5%	-7%	-30%	-20%	-8%
CCOc1ccc(-c2nc(CCl)cs2)cc1OC	40%[activator]	-14%[46.1 µM]	?	·	·	0%	-4%	-4%

(list continues)
SMILES	2A StopGo	Marburg entry inh	LASV entry inh	Cruzain Triton	Cruzain noTriton	SARS PLP yeast	NS1 inh	RE007 growth inh
O=C(CSC1=Nc2ccccc2N=C(c2ccc(F)cc2)C1)NCc1ccccc1	-17%	·	1%[46.1 µM]	-2.3%	-6%	·	·	·
CC(=O)c1cc(CN2CCCCC2)cc(OC(C)C)c1	-15%	-40%&-40%	4%	-1.5%	-17%	10%	-2%	-10%
COc1cc2c(cc1OC)C(C)N(C(=O)c1cccs1)CC2 (stereo not drawn)	-5%	?	?	·	·	2%	-1%	3%
O=C(Cn1c(=O)n(Cc2ccccc2)c(=O)c2sc3ccccc3c21)Nc1ccc(F)cc1	-7%	-4%[46.1 µM]	3%[46.1 µM]	-1.1%	-9%	·	·	·
C[C@@H]1NC(=O)[C@H](CCCN=C(N)N)NC(=O)c2cc([N+](=O)[O-])cc(I)c2OCC[C@@H](C(=O)NC(CC(=O)O)C(N)=O)NC1=O (stereo partly drawn)	·	-11%	3%	-3.2%	?	-8%	2%	·
CCNC(=O)c1sccc1-n1cccc1	-21%	-3%	-5%	5.7%	1%	9%	-1%	2%
C=CCSc1ncc(C#N)c(N)n1	13%	7%	8%	-1.1%	-5%	-20%	1%	7%

Outcome played no part in choosing rows. About 4.6% of those tested had a hit in this group.
